# Mtb hypoxia rep – inhibitors of hypoxia-regulated fluorescent reporter in Mycobacterium tuberculosis. M. tuberculosis hypoxia-regulated fluorescent reporter, fluorescence. fluorescence inhibition, % (no concentration beside the values). actives 0.1% (n = 300,000);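 active = 35 to 45% if threefold the growth effect, above 45% if 1.5-fold the growth effect; inactive = the rest, general growth blockers included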;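 note: wells of about 50 µL received 100 nL stock; 0% = vehicle wells and 100% = reference inhibitor wells; whole bacteria with a GFP reporter of the hypoxia response; strong numbers were not always called active; many hits fall short of the cut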
# BJeLR lethal – kills HRASV12-expressing BJeLR cells; BJeLR (HRASV12) viability, CellTiter-Glo ATP luminescence, 48 h; reference of the scale not given here; inhibition, % (concentration not given with the values); actives 0.17% (n = 300,000); AID 1554;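 active = replicate mean above 50%; inconclusive = above 50% but judged a plate artefact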;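 note: 50 nL library stock added to about 25 µL; numbers are from one replicate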
# ugtP null kill – kills S. aureus RN4220 lacking UgtP. S. aureus RN4220 ugtP deletion, OD600 growth, 16 h; some inactives read as strong as hits. growth inhibition, % (no concentration beside the values). actives 0.54% (n = 330,000);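 active = z-score under -3 and OD600 up to 0.15 on both plates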;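 note: plate controls were untreated wells for no effect and antibiotic for full effect; wells of about 80 µL received 100 nL stock; the first replicate is given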
# Sa RN4220 lethal – kills Staphylococcus aureus RN4220. inhibition, % (test concentration not listed). S. aureus RN4220 growth, OD600, 16 h. actives 0.33% (n = 330,000);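 active = z-score of -3 or lower and OD600 up to 0.18 on both plates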;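 note: plate controls were untreated cells for no effect and reference antibiotic for full effect; stock transfer was 100 nL into about 80 µL; one replicate is shown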
# PrP UTR inh – inhibition of PrP 5' UTR reporter expression; cell-based PrP 5' UTR mRNA reporter, plate reader; inhibition, % (no concentration beside the values); actives 0.35% (n = 340,000);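 active = every replicate at 50% or more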;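 note: 0 = median of the neutral control wells; tested in H4 reporter cells; numbers are from one replicate; inactives centre near -14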
# Bead autofluor – compound fluorescence in toxin protease inhibitor counterscreen | compound autofluorescence counterscreen, microsphere flow cytometry; stronger effect = higher value | fluorescence intensity (concentration not given with the values) | actives 3.1% (n = 360,000);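 active = at least 3 SD above the mean of all compounds, about 16000 in these data; inconclusive = too few beads counted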;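 note: 100 nL of 1 mM stock went into each well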
# Mtb hypoxia rep growth – further read-out of Mtb hypoxia rep, marked with its call; growth inhibition, %; measured here: M. tuberculosis growth (absorbance);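 0% = vehicle and 100% = reference antibiotic; read after six days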
# The depositor's hits bear a star; ? = inconclusive; · = not tested or not shown.
SMILES,Mtb hypoxia rep,Mtb hypoxia rep growth,BJeLR lethal,ugtP null kill,Sa RN4220 lethal,PrP UTR inh,Bead autofluor
Cc1onc(-c2ccccc2Cl)c1C(=O)N1CCN(C)CC1,13,-5,-3,-2,3.6,-26,4235
CCCCN(C(C)=O)c1c(N)n(CCC)c(=O)n(CC(=O)Nc2cc(Cl)cc(Cl)c2)c1=O,17,14,-4,10,-0.7,-23,4417
NS(=O)(=O)c1ccc(CCNC(=O)c2ccc(=O)[nH]c2)cc1,6,-11,-3,2,-0.9,-24,3065
Cc1cc2ccccc2n1CCNC(=O)COc1ccc2ccccc2c1,4,6,16,-7,-35,-8,1418
Cc1ccc(CNC(=O)CN(C)S(=O)(=O)c2ccc3c(c2)n(C)c(=O)c(=O)n3C)cc1,7,3,12,14,1.1,-23,4195
CCOc1ccc(NC(=S)N(CCc2c(C)[nH]c3ccccc23)Cc2cccnc2)cc1,6,14,-9,-15,-1.5,-2,4955
COc1ccc(OCC(=O)NNC(=O)c2cccnc2)cc1,11,4,-4,-10,6.6,-16,4577
CCOC(=O)[C@@H]1[C@H]2COc3cc(OC)ccc3[C@@H]2N2C(=O)N(c3ccc(F)cc3)C(=O)[C@]12C,·,·,-9,·,·,-11,3022
CN(C(=O)c1cccc(NC(=O)Cc2cccc(NC(=O)C3CCN(C(=O)C4CCC4)CC3)c2)c1)C1CC1,-4,2,·,1,4.1,-1,3927
CCCCNC(=O)CS(=O)Cc1nc(-c2cccs2)oc1C (configuration not stated),2,8,0,-10,-17,-17,5427
CS(=O)(=O)c1ccc(Cl)c(C(=O)OCC(=O)NC2CCCCCCC2)c1,12,1,·,7,6.9,-7,3926
CN1Cc2sc(N)c(C#N)c2CC1(C)C,·,·,4,0,-5.1,-6,2557
Cc1ccc(C(=O)C2=C(O)C(=O)N(Cc3cccnc3)C2c2cccc([N+](=O)[O-])c2)o1 (configuration not stated),2,1,2,6,2.9,-6,4984
Cc1ccc(OCC(=O)N2CCN(C(=O)c3ccc([N+](=O)[O-])cc3)CC2)cc1,-1,11,2,1,-0.3,-21,2051
O=C(COc1ccc(Br)cc1CNC1CCCCC1)NCCc1ccccc1,12,8,-3,-6,1.0,-16,4168
COc1ccc(C=NNC(=O)c2cc3c(ccc4ccccc43)o2)cc1OC,6,6,·,-1,3.6,·,·
CCC(C)N1C(=O)CN(C2CCCCCC2)C(=O)C1c1ccccc1F (configuration not stated),-1,12,6,1,1.8,-27,4334
Cc1nnc(SCC(=O)NC2CCCCC2)[nH]c1=O,0,-7,1,3,1.9,-7,4311
O=C(CN(CC1CCCO1)C(=O)CCC(=O)Nc1nccs1)NCc1ccc2c(c1)OCO2 (configuration not stated),·,·,-2,7,4.0,1,2162
CC(C)c1ccc(NC2CCCN(C(=O)CCN3Cc4ccccc4C3=O)C2)cc1 (configuration not stated),8,3,5,12,7.3,-17,4553
C=CCc1ccccc1Oc1cc(OC)nc(N)n1,8,3,·,8,6.8,-6,·
COc1cc(N)c(Cl)cc1C(=O)OCC(=O)c1ccc2c(c1)NC(=O)CO2,-15,5,-1,-11,-4.0,-22,6281
Cc1ccc(Nc2c(-c3ccccc3O)nc3ncccn23)cc1,7,7,11,12,-4.5,4,4003
Cn1ccnc1C(=O)c1cc(SCC(=O)NCc2ccccc2)nc2ccccc12,0,2,-4,-3,5.8,-36,5075
COc1ccc(/C=N/N2C(=N)SCC2=O)cc1,·,·,-5,·,·,-14,4599
CC(C)N(CCCNC(=O)c1nn(C)c2c1CS(=O)(=O)c1ccccc1-2)Cc1ccccc1,-8,4,2,-2,-0.7,0,6302
C[N+](C)(CCOc1ccccc1)Cc1ccccc1 (tested in a mixture with another compound),2,1,4,-5,6.3,9,?
CC(c1ccccc1)N(C)CC(=O)NC(=O)NCCC1=CCCCC1 (configuration not stated),9,9,·,1,2.1,-10,9330
C/C(=N\NC(=S)NC(C)C)c1ccc(C(C)(C)C)cc1,·,·,-8,·,·,-16,4119
Cc1cc(NC(=O)c2ccco2)sc1C,13,1,·,5,4.9,-73,4070
O=C(CCn1nc(-c2ccc(Cl)cc2)ccc1=O)NCCCN1CCCCCC1,3,3,5,-3,-14,-23,4040
C/C(=N/NC(=O)C1COc2ccccc2O1)c1ccc(Br)s1 (configuration not stated),·,·,-2,·,·,-16,3124
CC1=C(C(=O)Nc2ccccc2)C(c2ccncc2)C(C#N)=C(SCC(=O)NC2CC2)N1 (configuration not stated),-2,12,1,10,20,-5,3229
COc1ccc(CCNS(=O)(=O)c2ccc(-n3cnnn3)cc2)cc1OC,3,-9,-2,5,4.2,-18,6262
Cc1ccc(C(=O)c2ccc(N3CCN(C)CC3)c([N+](=O)[O-])c2)cc1,9,7,-7,2,2.4,-27,2487
CN(C)C(=O)CSc1nc(SCC(=O)N(C)C)n(-c2ccccc2)n1,-1,-1,-3,2,1.3,-24,7859
COc1ccc(Cn2nnnc2C(c2ccc3ncccc3c2)N2CCN(C3CCCCC3)CC2)cc1 (configuration not stated),-6,6,-1,4,4.2,-6,4349
CCOc1ccc(CN(C)C(=O)CCN2C(=O)c3ccccc3C2=O)cc1OC,0,2,2,11,2.5,-6,5114
COc1cc(CCC(=O)OCC(=O)Nc2nc(C)c(Cl)cc2Cl)cc(OC)c1OC,10,-2,-12,14,5.1,-27,8862
CCOC(=O)c1cnc(Cc2ccccc2)[nH]c1=O,0,3,-2,12,4.4,-17,4146
O=C1CCC(=O)c2oc3ccccc3c2N1,17,1,-1,1,0.7,0,2114
COc1ccc(N(CC(O)Cn2c(C)nc3ccccc32)S(=O)(=O)c2ccc(C)cc2)cc1 (configuration not stated),0,-4,4,4,3.4,-54,2534
Cc1ccc(C)n1CCN1CCN(C(=O)CSc2nc3ccccc3nc2N2CCOCC2)CC1,·,·,4,2,0.3,3,2383
O=C(NCCC1=CCCCC1)C(=O)NCC(c1ccco1)N1CCN(c2ccc(F)cc2)CC1 (configuration not stated),11,3,7,10,6.2,-19,11260
O=C(CC1NCCNC1=O)OCCCc1ccccc1 (configuration not stated),5,4,-7,11,5.7,-2,5463
CCNc1nc(NCC)n2c(SCC(=O)Nc3ccc(CC)cc3)nnc2n1,9,7,6,0,6.7,-34,6338
c1ccc2[nH]c(-c3cnco3)cc2c1,-6,1,-11,-2,5.1,-25,3684
CCCCC(=O)Nc1ccc(NC(=O)c2ccc([N+](=O)[O-])cc2Cl)cc1OC,6,-3,-8,5,2.8,-7,2392
C=CCNC(=O)c1onc(CSc2ccc(F)cc2)c1C(=O)NCCOC,10,9,5,-2,2.5,-18,3429
CN(C)S(=O)(=O)c1ccc(C(=O)OCC(=O)NCc2ccccc2)cc1,17,4,3,7,10,-8,3919
CCOC(=O)C1C2COc3ccc(OC)cc3C2N2C(=O)c3cc(C)ccc3NC(=O)[C@@]12C (some centres not stated),1,1,·,3,3.3,·,·
Cc1cccc(NC(=O)CNC(=O)CCc2nc3sc4c(c3c(=O)[nH]2)CCCC4)c1C,3,6,9,0,4.9,-21,·
CCN(CC)c1ccc(NC(=O)C2CCC(CNc3c(N4CCCC4)c(=O)c3=O)CC2)c(C)c1 (configuration not stated),1,6,5,3,3.6,-20,6127
CCN(CC(=O)Nc1c(F)cccc1F)C(=O)c1ccc(S(=O)(=O)N2CCC(C)CC2)cc1,9,4,·,6,3.1,-11,3494
COc1ccc([C@@H]2CC=C(C(=O)O)[C@H](c3ccc(C(C)(C)C)cc3)N2S(=O)(=O)c2ccc(C)cc2)cc1OC,-3,-6,·,-3,6.6,-5,4231
CCc1ccc(/C=C2/SC(=S)N(CCC(=O)Nc3cccnc3)C2=O)cc1,1,2,102*,1,3.2,-12,?
COC(=O)C1=C(C)NC(C)=C(C(=O)OCC2CCCO2)C1c1cccc(Br)c1 (configuration not stated),6,6,-4,4,1.6,-2,5520
O=C(NN1C(=O)c2ccccc2NC1c1ccco1)c1ccccc1 (configuration not stated),-3,5,16,17,10,1,4478
COc1cc(C=Nn2c(-c3cc(C)[nH]n3)n[nH]c2=S)ccc1O,0,4,·,-3,0.8,·,·
CCOc1ccc(N2CC(C(=O)NCCC3=CCCCC3)CC2=O)cc1 (configuration not stated),1,7,-2,4,1.1,-13,11097
# The list continues:
SMILES,Mtb hypoxia rep,Mtb hypoxia rep growth,BJeLR lethal,ugtP null kill,Sa RN4220 lethal,PrP UTR inh,Bead autofluor
COc1ccc(CCN(C)C(=O)c2ccc(S(=O)(=O)Nc3ccccc3F)cc2)cc1OC,7,-2,-14,3,4.2,-24,4130
O=C(Cn1c(=O)n(Cc2ccco2)c(=O)c2ccccc21)Nc1cccc(Cl)c1,·,·,-3,0,-0.7,-11,4105
CN(C)c1ccc(-c2cc(C3C4C=CCC[C@@]4(C)C(=O)N3Cc3ccccc3)ccc2F)cc1 (some centres not stated),2,3,·,14,-8.2,·,·
O=S(=O)(c1ccccc1F)N(Cc1ccco1)Cc1nnc(-c2ccccc2Br)o1,·,·,·,-7,5.1,1,2780
NCCc1nnc(SCC(=O)c2ccc(Cl)cc2)o1,15,-4,-10,1,4.9,-9,4344
O=C(c1cccc(S(=O)(=O)N2CCOCC2)c1)N1CCN(C/C=C/c2ccccc2)CC1,-15,-5,·,-3,-6.1,-28,2973
COc1ccc(CNC(=O)Oc2ccccc2)cc1Cl,·,·,-5,0,-3.3,-4,4727
CC(=O)NNc1nc(-c2ccc(NC(C)=O)cc2)cs1,-4,-5,-1,-8,9.9,-13,1953
O=C(Nc1nc(-c2ccccc2)c(-c2ccccc2)s1)c1ccc(S(=O)(=O)N2CCCC2)cc1,-12,-16,-4,5,-3.6,-13,15385
COc1ccc(C=NNC2=NCCCCC2)c(OC)c1,10,8,·,1,3.7,·,·
O=C1C2ON(c3ccccc3)C(c3cccnc3)C2C(=O)N1Cc1ccccc1 (configuration not stated),-8,8,1,-4,6.2,5,5924
O=C(N1CCOCC1)C1(c2ccc(Cl)cc2)CCCC1,13,12,2,2,5.0,-20,3169

# Four entries from above, reformatted:
molecule: CN(C)C(=O)CSc1nc(SCC(=O)N(C)C)n(-c2ccccc2)n1
  Mtb hypoxia rep = -1
  Mtb hypoxia rep growth = -1
  BJeLR lethal = -3
  ugtP null kill = 2
  Sa RN4220 lethal = 1.3
  PrP UTR inh = -24
  Bead autofluor = 7859
molecule: COc1ccc(Cn2nnnc2C(c2ccc3ncccc3c2)N2CCN(C3CCCCC3)CC2)cc1 (configuration not stated)
  Mtb hypoxia rep = -6
  Mtb hypoxia rep growth = 6
  BJeLR lethal = -1
  ugtP null kill = 4
  Sa RN4220 lethal = 4.2
  PrP UTR inh = -6
  Bead autofluor = 4349
molecule: CCOc1ccc(CN(C)C(=O)CCN2C(=O)c3ccccc3C2=O)cc1OC
  Mtb hypoxia rep = 0
  Mtb hypoxia rep growth = 2
  BJeLR lethal = 2
  ugtP null kill = 11
  Sa RN4220 lethal = 2.5
  PrP UTR inh = -6
  Bead autofluor = 5114
molecule: COc1cc(CCC(=O)OCC(=O)Nc2nc(C)c(Cl)cc2Cl)cc(OC)c1OC
  Mtb hypoxia rep = 10
  Mtb hypoxia rep growth = -2
  BJeLR lethal = -12
  ugtP null kill = 14
  Sa RN4220 lethal = 5.1
  PrP UTR inh = -27
  Bead autofluor = 8862

# (further entries)
SMILES,Mtb hypoxia rep,Mtb hypoxia rep growth,BJeLR lethal,ugtP null kill,Sa RN4220 lethal,PrP UTR inh,Bead autofluor
CC(C)NS(=O)(=O)c1ccc(OCC(=O)Nc2cccc(F)c2)cc1,·,·,0,·,·,-15,4240
CC(C)CCN(C(=O)CNC(=O)c1ccco1)C(C(=O)NC1CCCCC1)c1ccco1 (configuration not stated),·,·,13,6,-4.1,-13,4616
CC(C)CN(CC(C)C)c1ccc(C=C2C(=O)NC(=S)NC2=O)cc1[N+](=O)[O-],1,3,7,66,-2.0,-11,11347
COc1ccccc1-c1nnc(SCC(=O)N2CCC(C)CC2)o1,·,·,5,-5,0.4,-17,4831
O=C(O)c1[nH]c(=O)[nH]c(=O)c1F,·,·,4,4,4.9,-9,3973
CCOC(=O)c1cnc2c(C#N)c(C)nn2c1-c1ccccc1,1,-2,1,-2,2.2,-6,6344
Cc1[nH]c2ccccc2c1CN1CCC(Cc2ccccc2)CC1,-4,24,-1,-2,-2.8,13,3982
Cn1c(N)c(C(=O)COC(=O)c2ncc(Cl)c(Cl)c2Cl)c(=O)n(C)c1=O,-16,0,3,-9,0.2,0,4746
COc1cccc(NC(=O)NCc2ccccc2F)c1,3,3,-1,2,5.3,-27,2490
CCOc1cc(/C=N/Nc2cc(C)nc(-n3nc(C)cc3C)n2)ccc1O,·,·,1,·,·,17,4870
O=C(CSCc1ccc(Br)cc1)NC1CC1,3,-4,-1,2,4.9,-23,4522

# Screening data from PubChem.
